KCNQ2 inh: KCNQ2 channel blockers in CHO-K1 cells – cell-based, FluxOR thallium flux, B-score, primary screen (AID 2156) | O88943 | 20 min; stronger effect = lower value; only compounds with negative scores are shown here; some inactives read as strong as hits | B-score at 10 µM | 310,000 compounds, 1.1% hits;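 active = fluorescence ratio B-score at most minus 3 library SDs, with starting brightness B-score within 2 library SDs, cut at about -5.5 in these data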
Target sequence (O88943 whole entry, looked up): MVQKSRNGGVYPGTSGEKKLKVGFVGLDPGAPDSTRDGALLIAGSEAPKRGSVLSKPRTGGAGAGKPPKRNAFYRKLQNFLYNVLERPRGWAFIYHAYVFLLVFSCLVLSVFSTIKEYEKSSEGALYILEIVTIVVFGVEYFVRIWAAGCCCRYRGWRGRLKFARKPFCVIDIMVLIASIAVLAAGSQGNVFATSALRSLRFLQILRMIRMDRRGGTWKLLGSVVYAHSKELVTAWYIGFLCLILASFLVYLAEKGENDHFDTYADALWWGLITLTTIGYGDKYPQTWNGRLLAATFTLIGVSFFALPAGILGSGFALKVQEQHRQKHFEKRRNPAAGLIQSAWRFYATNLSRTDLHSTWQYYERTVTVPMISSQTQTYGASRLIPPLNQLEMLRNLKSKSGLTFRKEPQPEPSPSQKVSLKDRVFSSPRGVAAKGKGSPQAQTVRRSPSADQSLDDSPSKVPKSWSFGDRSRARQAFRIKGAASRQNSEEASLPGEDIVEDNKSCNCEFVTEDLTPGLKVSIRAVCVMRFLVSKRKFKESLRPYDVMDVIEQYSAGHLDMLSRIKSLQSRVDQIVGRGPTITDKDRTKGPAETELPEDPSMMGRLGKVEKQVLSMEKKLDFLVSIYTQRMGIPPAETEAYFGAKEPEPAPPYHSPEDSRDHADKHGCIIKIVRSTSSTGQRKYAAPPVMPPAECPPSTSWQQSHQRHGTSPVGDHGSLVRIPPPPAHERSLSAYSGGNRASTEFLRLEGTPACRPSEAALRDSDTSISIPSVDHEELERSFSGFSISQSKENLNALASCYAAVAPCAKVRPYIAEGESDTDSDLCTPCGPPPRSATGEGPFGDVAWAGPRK
KCNQ2 inh baseline: further read-out of KCNQ2 inh, marked with its call; B-score; measured here: initial fluorescence intensity artifact check;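 brightness before thallium and not channel activity; 0 = typical well and far values either way flag optical interference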
* = called active by the depositor; i = inactive; & = joins results of further samples. The list is partial, so the mix of outcomes need not match the whole.

SMILES	KCNQ2 inh	KCNQ2 inh baseline
CC1Cc2cc(S(=O)(=O)NCCc3ccccc3)ccc2N1C(=O)C1CC1 (stereo not given)	i	0.21
COc1cccc(NC(=O)CN2C(=O)C3(OCCCO3)c3ccccc32)c1	i	-0.84
COc1cc(NC(=O)CN(C)CCOc2ccccc2)c(C)cc1[N+](=O)[O-]	i	-0.24
COc1ccc(S(=O)(=O)NCCN2CCOCC2)cc1Br	i	1.6
Cc1ccc(C(=O)CSc2cnc3ccccc3n2)cc1C	i	0.99
Cc1ccc(NC2CCCN(C(=O)Cc3nonc3C)C2)cc1C (stereo not given)	i	2.4
CCN(CC)C1CCN(Cc2c(C(=O)N3CCCCCCC3)nc3ccc(Cl)cn23)C1 (stereo not given)	i	0.73
CC(C(=O)NCC1CCCCC1)N(C)Cc1ccc(Cl)cc1 (stereo not given)	-6.7*	-1.3*
O=C(O)c1cc(S(=O)(=O)N2CCCc3ccccc32)ccc1Cl	i	0.02
CC1=C(C)C(=O)OC(C(C)C2CCC3C4CC=C5CC(OC6OC(COC7OC(CO)C(O)C(O)C7O)C(O)C(O)C6O)CC(O)C5(C)C4CCC23C)C1 (stereo not given)	i	1.2
O=C(COC(=O)c1cc([N+](=O)[O-])ccc1NCc1ccccc1)NC1CCCCC1	i	3.9
CCCCC1=CC2=C(c3ccco3)C(=O)C(C)(OC(=O)c3ccc(OC)cc3)C(=O)C2=CN1Cc1ccccc1 (stereo not given)	i	1.9
Cc1cccc2cc(CN(Cc3cccs3)C(=S)NCc3ccco3)c(=O)[nH]c12	i	0.45
COc1ccc(C)cc1NC(=O)CSc1nnc(COc2ccc(C)cc2)n1Cc1ccco1	i	0.47
COCCCN(C(=O)Nc1cccc(Cl)c1)C(C)c1ccccn1 (stereo not given)	i	1.7
Cc1ccc(CSC2=NCCN2S(=O)(=O)c2ccc(F)cc2)cc1	i	1.9
CC(C)(C)c1nc2scc(-c3ccc(Br)cc3)c2c(=O)o1	i	-0.65
COc1ccc(NC(=S)Nc2cc(C)[nH]n2)cc1Cl	i	-1.1
CCOc1ccc(C2=C(C=C(C#N)C#N)C(c3ccccc3)c3ccccc3O2)cc1 (stereo not given)	i	0.98
CCOC(=O)C1(C(F)(F)F)N=C(c2cccnc2)OC(N2CCOCC2)=N1 (stereo not given)	i	0.79
Cc1noc(C)c1COc1ccc(C(=O)OCC(=O)NC23CC4CC(CC(C4)C2)C3)cc1	i	-1.3
Cc1ccc(N(C(=O)CNC(=O)c2ccco2)C(C(=O)NCC2CCCO2)c2ccccc2)c(C)c1 (stereo not given)	i	-0.54
CC(=O)Nc1ccc(C(=O)CN2C(=O)CSC2=O)cc1	i	0.1
CC(=O)N(CCC(Cc1ccccc1)c1ccc2c(c1)OCO2)Cc1ccccc1F (stereo not given)	-7.2*	-1.4*
COc1ccc(CCN2C(=O)c3[nH]nc(-c4ccccc4O)c3C2c2cccc(Cl)c2)cc1 (stereo not given)	i	-0.9

Shown with two lines to a compound: three of the compounds above.
Order of results: KCNQ2 inh, KCNQ2 inh baseline
- CCCCC1=CC2=C(c3ccco3)C(=O)C(C)(OC(=O)c3ccc(OC)cc3)C(=O)C2=CN1Cc1ccccc1 (stereo not given)
→ i, 1.9
- CC(C)(C)c1nc2scc(-c3ccc(Br)cc3)c2c(=O)o1
→ i, -0.65
- O=C(COC(=O)c1cc([N+](=O)[O-])ccc1NCc1ccccc1)NC1CCCCC1
→ i, 3.9

(list continues)
SMILES	KCNQ2 inh	KCNQ2 inh baseline
O=S(=O)(c1ccc(F)cc1)N1CCN(c2ncnc3c2cnn3-c2ccccc2)CC1	i	-1.4
Cc1ccc(NC(=O)NC2CCCN2S(=O)(=O)c2ccc(Cl)cc2)cc1 (stereo not given)	i	-0.5
Cc1ccc(N2C(=O)CSC2c2cccnc2)c(Cl)c1 (stereo not given)	i	-0.82
O=C1Nc2ccccc2OC1CC(=O)N1CCN(c2cccc(C(F)(F)F)c2)CC1 (stereo not given)	i	-1.8
O=C(OCn1nnc2ccccc2c1=O)c1ccc(O)cc1	i	2.1
Cc1cccc(C)c1NC(=S)NC(=O)CCc1ccccc1	i	2.5
CCNC(=S)NS(=O)(=O)c1ccc(C)cc1	i	0.95
CCCn1nc(NS(=O)(=O)c2ccc(F)cc2)c2cc3ccccc3nc21	i	-0.67
C/C=C/c1ccc(OCC(O)CN(C)Cc2ccc(SC)cc2)c(OC)c1 (stereo not given)	i	-0.27
OC(CN(c1ccccc1)c1ccccc1)Cn1cnc2ccccc21 (stereo not given)	i	-1.4
Cc1cc(=O)n2[nH]cnc2n1	i	-0.06
O=c1c(-c2ccccc2)[n+]([O-])c2ccccc2n1O	i	-0.28
NC(=O)C(C(=O)/C=C/c1ccc(Cl)cc1)=C1SCCS1	i	-0.23
COC(=O)C1=C(C)OC(N)=C(C#N)C1c1ccsc1 (stereo not given)	i	-0.07
COc1ccc(/C=C2\SC(N3CCc4ccccc4C3)=NC2=O)cc1	i	-0.48
CC(=O)c1cc(CN2C(=O)CCC2=O)cs1	i	-0.14
Cn1c(=O)n(C)c2cc(/C=N/NC(=O)c3cccc(Br)c3)ccc21	i	-0.22
N#C/C(=C/c1ccccc1)C(=O)NCc1ccccc1	i	-1.7
CCOC(=O)c1nnn(-c2nonc2N)c1COc1c(C=O)cccc1OC	i	1.1
O=C(Nc1ccc(F)cc1)c1cc(-c2ccncc2)nc2c(Cl)cccc12	i	0.6
COc1ccccc1CCc1nnc(CCC(=O)NCCOc2cccnc2)o1	i	1.3
CCCCCC(=O)OC(CN1CCCCCC1)CN1CCCC1=O (stereo not given)	i	-1.5
COC(=O)CSc1nnc(CNC(=O)Cc2ccccc2)n1C	i	1.3
COC(=O)c1[nH]c2cccc(Cl)c2c1NC(=O)CN1CCCCC1C (stereo not given)	i	1.6
Cc1ccc(S(=O)(=O)N2CCCCC2)cc1C(=O)Nc1ccc2cn[nH]c2c1	i	-0.13
Going on with the list.
SMILES	KCNQ2 inh	KCNQ2 inh baseline
COc1ccccc1NC(=O)CSc1nnc(C)n1CCc1ccccc1	i	0.25
CCN(CC)CCCNC(=O)CCc1ccccc1	i	1.3
O=C(CCNS(=O)(=O)c1ccc(Cl)cc1)OCC(=O)c1ccc[nH]1	i	0.11
Cc1ccc2c(c1)nnn2C1CCN(C(=O)NC23CC4CC(CC(C4)C2)C3)CC1	i	-0.03
Cc1ccc(CNC(=O)CCS(=O)(=O)c2cc3c(cc2Cl)NC(=O)CO3)cc1	i	-0.56
COc1ccccc1NC(=O)/C=C/C(N)=O	i	3.7
CNC(=O)CSc1nnc(-c2ccccn2)n1Cc1ccco1	i	0.16
CSc1nc2ccccc2cc1/C=C(\C#N)c1ccc(Cl)cc1Cl	i	0.31
O=C(Nc1ccccc1F)N(CCCN1CCOCC1)Cc1cc2cc3c(cc2[nH]c1=O)OCCO3	i	0.21
Cn1c(=O)[nH]c(=O)c2c1nc(N1CCCCCC1)n2CCN1CCCCCC1	i	-0.43
C=CCn1c(C(C)NC(=O)C(C)(C)C)nc2ccccc21 (stereo not given)	-6.6*	-1.9*
CCOc1ccc(-n2c(Cc3ccccc3)nnc2SCc2c(C)noc2C)cc1	i	-1.6
CSc1cccc(-c2nnc(NC(=O)c3cccc(N4C(=O)CCC4=O)c3)o2)c1	i	0.04
CCc1ccc2oc(=O)cc(CN3CCN(c4ccc(F)cc4)CC3)c2c1	i	1
Cc1c(C(=O)Oc2cccc3ccccc23)cnn1-c1ccccc1	-9.3*	1.1*
Cc1ccccc1-n1c(SCc2csc(Nc3ccccc3)n2)nnc1-c1cccnc1	i	-0.11
CCc1ccc(NC(=O)c2cnc(N3CCN(c4ccccn4)CC3)c3ccccc23)cc1	i	0.44
CN1CCN(C(=S)NC(=O)c2ccc(S(=O)(=O)N3CCOCC3)cc2)CC1	i	0.5
S=c1[nH]nc(C2CCCCC2)n1/N=C/c1cccc(Br)c1	i	1.6
COc1ccc(N2Cc3ccccc3/C2=N\C(=O)Nc2ccccc2)cc1	-7.1*	-1.4*
CSc1cccc(NC(=O)CN(c2ccccc2)S(=O)(=O)N(C)C)c1	i	0.29
COc1ccc(C(CNC(=O)COc2ccc(-c3ccccc3)cc2)N2CCOCC2)cc1 (stereo not given)	i	1.1
c1ccc(-c2cc(-c3nn4c(-c5ccco5)nnc4s3)c3ccccc3n2)cc1	i	-0.02
O=C(NC1CCCc2ccccc21)C1CCN(S(=O)(=O)c2cccc(C(F)(F)F)c2)CC1 (stereo not given)	i	0.65
NC(=O)c1ccsc1NC(=O)CS(=O)(=O)c1ccc(Cl)cc1	i	0.67

Quoted from the results shown, 3 compounds:
SMILES	KCNQ2 inh	KCNQ2 inh baseline
c1ccc(-c2cc(-c3nn4c(-c5ccco5)nnc4s3)c3ccccc3n2)cc1	i	-0.02
O=C(NC1CCCc2ccccc21)C1CCN(S(=O)(=O)c2cccc(C(F)(F)F)c2)CC1 (stereo not given)	i	0.65
NC(=O)c1ccsc1NC(=O)CS(=O)(=O)c1ccc(Cl)cc1	i	0.67

Continuation:
SMILES	KCNQ2 inh	KCNQ2 inh baseline
CN(C)S(=O)(=O)c1ccc(N2CCCC2)c(C(=O)NCC2CCCCC2)c1	i	-0.17
CCOCCn1c(C(C)C)nc2ccccc21	i	-0.3
COc1ccccc1NC(=S)NC(C)C(c1cccs1)N1CCOCC1 (stereo not given)	i	0.31
COc1ccc(C2N(c3ccc(Cl)cc3)C(=O)C3CCCN32)cc1 (stereo not given)	i	0.18
Cc1cc(=O)oc2cc(OCCCN3C(=O)c4ccccc4C3=O)ccc12	i	-0.47
O=S(=O)(c1ccccc1)N1CCN(CC2CC3C=CC2C3)CC1 (stereo not given)	i	-1.5
CCN(CC)CCOc1c(C)cccc1Cl	i	-1.4
COc1cc(-c2nnc(SCC(=O)N3c4ccccc4Sc4ccccc43)o2)cc(OC)c1OC	i	0.2
CCc1nc(N2CCN(CC(=O)NCC3CCCO3)CC2)c(C#N)c2c1COC(C)(C)C2 (stereo not given)	i	2.2
c1ccc(-c2nc(N3CCN(c4ccccc4)CC3)nc(-n3ccnc3)n2)cc1	i	-0.88
Cc1cccc(C(=O)OCC(=O)Nc2sc3c(c2C#N)CCC3)c1	i	2.2
Cc1sc2c(=O)n3c(nc2c1C(=O)NC1CCCCC1)CCCCC3	i	0.13
O=C(CN1C(=O)COc2ccccc21)NCCC1=CCCCC1	i	1.7
CC(=O)N/C(=C\c1ccc(C)o1)C(=O)NCc1ccccc1	i	0.54
Cc1ccccc1Nc1nnc(SCc2cc([N+](=O)[O-])cc3c2OCOC3)s1	i	-0.77
O=C1CCCN1CCCNS(=O)(=O)c1cccc(F)c1	i	0.17
Cc1[nH]nc(N)c1-c1ccc(Cl)cc1	i	0.66
COC(=O)c1cnn2c(C(F)(F)F)cc(-c3ccco3)nc12	i	-1.2
CNc1nc(Nc2ccc([N+](=O)[O-])cc2)nc(OCC(F)(F)F)n1	i	-0.96
COc1ccc([C@@H]2C[C@@H](c3ccccc3)Oc3cc(OC)cc(OC)c32)cc1	i	-1.3
COc1cccc(NC(=O)c2cccc(N3C(=O)C4C5C=CC(C5)C4C3=O)c2)c1 (stereo not given)	i	2.2
Cc1cc(C)cc(NC(=S)N2CCCC2)c1	i	0.02
COCCCN1C(=O)c2ccc(C(=O)Nc3ccc(C)cc3C)cc2C1=O	i	-0.51
CCCNC(=O)C(=O)Nc1cc2c3c(c1)CCC(=O)N3CCC2	i	0.1
CN(CC1CCOCC1)C(=O)CC1C(=O)NCCN1Cc1ccc(-c2ccccc2)cc1 (stereo not given)	i	0.68

7 compounds out of the list above, arranged by their value in KCNQ2 inh baseline, largest number first:
SMILES	KCNQ2 inh	KCNQ2 inh baseline
COc1ccccc1NC(=S)NC(C)C(c1cccs1)N1CCOCC1 (stereo not given)	i	0.31
Cc1sc2c(=O)n3c(nc2c1C(=O)NC1CCCCC1)CCCCC3	i	0.13
CN(C)S(=O)(=O)c1ccc(N2CCCC2)c(C(=O)NCC2CCCCC2)c1	i	-0.17
CCOCCn1c(C(C)C)nc2ccccc21	i	-0.3
Cc1ccccc1Nc1nnc(SCc2cc([N+](=O)[O-])cc3c2OCOC3)s1	i	-0.77
CCN(CC)CCOc1c(C)cccc1Cl	i	-1.4
O=S(=O)(c1ccccc1)N1CCN(CC2CC3C=CC2C3)CC1 (stereo not given)	i	-1.5

Following part
SMILES	KCNQ2 inh	KCNQ2 inh baseline
Cc1ccc(S(=O)(=O)c2nc(S(C)(=O)=O)sc2N2CCC(O)CC2)cc1	i	1
N#C/C(=C\c1c(Cl)cccc1Cl)c1nc2ccccc2o1	i	0.09
CC(C)C(C)NC(=O)COc1ncnc2ccccc12 (stereo not given)	i	0.29
CCN(CC)CCn1c2c(c(SCC(=O)Nc3ccc(C)c(F)c3)nc1=O)CCCC2	i	0.01
Cc1cccc(NC(=S)NCCSc2ccc(Cl)cc2)c1	i	-1
COc1ccc(Cl)cc1NC(=S)NCc1ccc(S(N)(=O)=O)cc1	i	0.86
CC(C)[C@H](CO)N(Cc1cccc(F)c1)c1nc(Nc2cccc(Cl)c2)c2ncn(C(C)C)c2n1	i	-0.02
O=C(Nc1ncc(Cc2ccc(Cl)cc2Cl)s1)c1ccc([N+](=O)[O-])cc1	i	0.83
COc1ccc(-c2nnc(SCC(=O)NC(C)C)n2CC2CCCO2)cc1OC (stereo not given)	i	0.06
CC(=C\C(=O)O)/C(=C/c1ccccc1)C(=O)O	i	1.4
CN(C)c1ccnc2c[cH-]cc12.[Fe].c1ccc(-[c-]2[c-](-c3ccccc3)[c-](-c3ccccc3)[c-](-c3ccccc3)[c-]2-c2ccccc2)cc1 (stereo not given)	i	0.03&1.1
CCOC(=O)CN1NC2(CCCC(C)C2)NC1=S (stereo not given)	i	-1.3
N#CCC1c2ccccc2CCN1C(=O)Nc1cccc(C(F)(F)F)c1 (stereo not given)	i	2.2
CCC(C)(C)n1nnnc1C(c1ccc2ncccc2c1)N1CCN(Cc2ccc3c(c2)OCO3)CC1 (stereo not given)	i	-0.61
O=S(=O)(Nc1ccc(-c2csc(-c3ccccc3)n2)cc1)c1ccc(F)cc1	i	0.05
CC(=O)c1ccc(OCC(=O)N2CCN(S(=O)(=O)c3ccc(C)cc3C)CC2)cc1	i	-0.55

High-throughput results (PubChem)
